Tg IFNy HTS: T. gondii growth inhibition under IFN-gamma; Toxoplasma gondii growth in IFN-gamma-treated host cells; active compounds read low; reference of the scale not given here; activity change, negative = inhibition, %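 (about 20 µM by stock and volumes)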; hit rate 3.8% among 69,000;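 active means below -70%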;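 further: host cells are HeLa cells infected with Toxoplasma gondii; parasite growth read as luciferase light; one replicate is shown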
Active calls of the source: *; & = joins results of further samples. An excerpt; rates above refer to the full screens.

compound | Tg IFNy HTS
COc1ccc([C@H]2CN(C)C[C@@H]2CNc2nc(C)c(C(C)C)c(=O)[nH]2)cc1OC | 8
CS(=O)(=O)c1ccc(CN2C[C@H]3C[C@H](O)[C@H](O)C[C@H]3C2)cc1 | 7
CC(C)C(=O)NCCc1csc(-c2ccc(Cl)cc2)n1 | 42
Nc1ncc(-c2ccc(Cl)cc2)c(C2CCCCN2S(=O)(=O)c2ccc(F)cc2)n1 (stereo not drawn) | -36
C/C(CCc1oc2ccc(Cl)cc2c1-c1ccc(C)o1)=N\O | 9
Cc1cccc2c(-c3cc(C(N)=O)ccn3)c[nH]c12 | -1
O=C(C1CCCCC1)N1CC2(C1)[C@H](c1ccccc1)[C@@H](CO)N2CCC(F)(F)F | -23
Cc1cccc(S(=O)(=O)N2C[C@@H]3[C@H](c4ccccc42)[C@@H](CO)N3C(=O)c2ccccc2)c1 | 1
CCOC(=O)CSC1=Nc2ccccc2C2=NC(CC(=O)NCc3ccc(OC)cc3)C(=O)N12 (stereo not drawn) | -49
CCn1nc(C)c(Cn2ccnc2-c2ccccc2SC)c1C | 3
Cc1cc(C(=O)N2CC[C@H](O)[C@@H](O)C2)ccc1F | -6
CCOC(=O)c1c(NC(=O)CCC(=O)N2CCCCC2)sc2c1CC(C)(C)OC2 | 14
CC(C)CC(=O)NCCc1csc(-c2cccc(F)c2)n1 | 27
COc1ccccc1C(=O)Nc1ccc2c3c(cccc13)CC2 | -102*
CCc1ccc(-c2nccn2CCc2nc(-c3cccnc3)no2)nc1 | 74
O=C(NCCc1ccccc1Cl)c1cccc2ccnn12 | 56
Cc1cc(CNC(=O)c2ccc(-n3cnnc3)cc2Cl)c2[nH]c(C)c(C)c2c1 | 41
COc1ccccc1CNC(=O)C[C@H]1CC[C@@H]2[C@H](COC[C@@H](O)CN2Cc2ccc3c(c2)OCO3)O1 | 33
COc1ccc(-c2nccn2CCc2ccccn2)c(OC)c1 | 9
O=c1[nH]c(=O)c2cc(S(=O)(=O)NCCN3CCc4ccccc43)ccc2[nH]1 | 8
O=C(CC1N=C2c3ccccc3N=C(SCc3cc(=O)n4cc(Cl)ccc4n3)N2C1=O)NCc1ccccc1 (stereo not drawn) | 4
CCCN1[C@@H]2c3ccc(-c4ccccc4F)c(=O)n3C[C@@H]2[C@@H](CO)[C@@H]1C(=O)N1CCOCC1 | -36
Cc1ncccc1NC(=O)[C@@H]1C[C@H]2CCN(c3ncc(F)cn3)C[C@@H]2O1 | 6
COc1ccc(N2C(=O)CC(N(C)Cc3ccccc3)C2=O)cc1 (stereo not drawn) | -3
CNc1nc(C2CCCN2)nc2c1CN(C(=O)CCc1nc3ccccc3s1)CC2 (stereo not drawn) | 2

4 structures already listed, arranged by length of the SMILES, ascending:
compound | Tg IFNy HTS
COc1ccccc1C(=O)Nc1ccc2c3c(cccc13)CC2 | -102*
C/C(CCc1oc2ccc(Cl)cc2c1-c1ccc(C)o1)=N\O | 9
Nc1ncc(-c2ccc(Cl)cc2)c(C2CCCCN2S(=O)(=O)c2ccc(F)cc2)n1 (stereo not drawn) | -36
O=C(C1CCCCC1)N1CC2(C1)[C@H](c1ccccc1)[C@@H](CO)N2CCC(F)(F)F | -23

Next results follow.
compound | Tg IFNy HTS
Cc1nc2cc(N3CCC(C(=O)N4CCC(N5CCCCC5)CC4)CC3)cnc2nc1C | -33
CCOc1cc(CCC(=O)N2CCN(c3cc(C)nc(C(C)C)n3)CC2)on1 | 18
COCCN(C)C(=O)c1ccc2ccc(N3CCN(C(C)=O)CC3)n2c1 | -1
O=C(ONC(=O)c1ccco1)c1ccc(Cl)cc1 | 44
Cc1cccc2[nH]c(COCC(=O)N3CCC4(CCCNC4)C3)nc12 (stereo not drawn) | -6
CN(C)S(=O)(=O)c1ccc2c(c1)cc(C(=O)NC1CCCCC1)n2Cc1ccncc1 | -49
CCOc1ccc(NC(=O)COc2nc(CC)nc3ccccc23)cc1 | 15
CNC(=O)c1ccc(CNC(=O)c2[nH]c3ccc(C)cc3c2C)o1 | -108*
COc1ccc2c3c(n(C)c2c1)[C@H](CO)N(C)CC31CCN(C(=O)c2cccnc2)CC1 | -62
CSCC[C@H](NC(=O)OC(C)(C)C)C(=O)N1CCC(C(=O)N[C@@H](C)C(=O)O)CC1 | -21
CCn1cc(CN2CCN(S(=O)(=O)c3ccc(OC)c(NC(C)=O)c3)CC2)cn1 | 10
CCn1c(CCC(=O)O)nc2ccccc21 | 12
Cc1ccc(-c2ccccc2[C@H]2[C@@H](C#N)N(S(C)(=O)=O)[C@@H]2CO)cc1 | 6
CCN(C[C@H]1[C@@H](c2ccccc2)[C@H](CO)N1CC1CC1)C(=O)c1ccccn1 | 9
CCn1cc(-c2c(-c3ccccc3)ncn2CCN2CCCCC2CO)cn1 (stereo not drawn) | -3
COc1ccc(-c2nc(C)c(CCNC(=O)c3ccc(Cl)cc3)s2)cc1 | 314
CN(C)c1ccc(/C=C/C=c2\sc3nc4ccccc4n3c2=O)cc1 | 91
O=C(CCC1N=C2c3ccccc3N=C(SCc3cc(=O)n4ccccc4n3)N2C1=O)NCc1ccco1 (stereo not drawn) | 3
CCOc1cccc(-c2noc(-c3nnn(Cc4nc(-c5ccc(C)cc5)oc4C)c3C)n2)c1 | 7
Cn1ccnc1CN1CCCC(CCNS(C)(=O)=O)C1 (stereo not drawn) | 31
CC(=O)N1CC(=O)N(c2cnn(C)c2)CC12CCN(C(=O)c1cnc(C)cn1)C2 (stereo not drawn) | 9
C/C=C/c1ccc([C@H]2[C@@H](CO)N(C(=O)C3CCCC3)C23CN(S(C)(=O)=O)C3)cc1 | -39
O=C(NCC(c1ccc[nH]1)C(F)(F)F)Nc1ccccc1 (stereo not drawn) | 1
COc1ccc(-n2c(=O)c(C(=O)Nc3ccc(F)c(C)c3)c(O)c3cccnc32)cc1 | -47
CCOC(=O)c1cccnc1-c1cccc(C(=O)O)c1 | 10

Further results.
compound | Tg IFNy HTS
O=C(CN1CCOCC1)N1CC[C@H]2[C@H](CO)Nc3ccc(-c4ccccc4F)cc3[C@H]21 | -42
O=C(c1csc(N2CCN(c3ccccc3)CC2)n1)N1CCC(N2CCCCC2)CC1 | 1
Cc1ccc(-c2nc3sc(-c4ccc(C)cc4)nc3s2)cc1 | -12
COc1cc(CN(C)C(C)c2ccccn2)cc2c1OCO2 (stereo not drawn) | -20
COc1ccccc1NC(=O)N1C[C@H]2[C@@H](c3ccccc31)[C@H](CO)N2C(=O)C1CCCC1 | 6
Cc1cccc(NC(=O)C(c2ccccc2)c2ccccc2)c1C | -6
C=CC[C@@H]1CC=C[C@@H](C)N1C(=O)c1cc(C)nc(C)n1 | -14
Cc1oc(C2CCN(S(=O)(=O)c3ccc(C#N)cc3)CC2)nc1C(=O)N1CCOCC1 | -11
CCOc1cc(CCC(=O)N(C)Cc2cccc3ncccc23)on1 | -39
Cc1ccccc1C(=O)N1CCN(S(=O)(=O)c2cc3c4c(c2)CCN4C(=O)CC3)CC1 | 52
CCCCc1ncc(/C=C(\Cc2cccs2)C(=O)O)n1Cc1ccc(C(=O)O)cc1 | -10
CN1[C@@H](CC(=O)c2ccccc2)CCC[C@H]1C[C@H](O)c1ccccc1 | 13&1
CC(C)c1nccc(-c2nccn2Cc2cnn(-c3ccccc3)c2)n1 | 19
CN(Cc1cn2c(n1)CN(Cc1ccco1)CC2)Cc1ccco1 | 6
CC(=O)N1CC(c2nc(C)cc(N3CCC[C@@H]3CO)n2)C1 | 6
O=C(NCCc1csc(-c2ccc(F)cc2)n1)c1ccccc1Cl | 37
CCCN1[C@H](CO)[C@H](c2ccc(-c3ccccc3F)cc2)[C@@H]1CNC(=O)C1CCC1 | -39
CN1CCN(C(=O)NCc2nc(-c3cccc(F)c3)c(-c3ccccn3)[nH]2)CC1 | 1
COc1cc(C)c(C)cc1S(=O)(=O)NCCc1csc(-c2cccc(F)c2)n1 | 89
CC1(c2ccccc2)CC(C)(C)N2C(=O)C(=O)c3cccc1c32 (stereo not drawn) | -11
COc1ccc(CN2CCN(c3ccc(Cl)cn3)CC2)c(OC)c1OC | -3
COCCN1C(=O)CCc2cc(NS(=O)(=O)c3ccc(F)cc3F)ccc21 | 60
CC1CCN(S(=O)(=O)c2ccc3c(c2)CCC(=O)N3CC(=O)NCc2ccc(Cl)cc2)CC1 | -56
CCN(CC)C(CNC(=O)c1ccc(=O)n(C)n1)c1ccccc1Cl (stereo not drawn) | -14
Cc1cccc(-c2cn(C3CCCc4ccccc43)nn2)n1 (stereo not drawn) | -49

Rewritten with each value named: part of the list above.
> CC1CCN(S(=O)(=O)c2ccc3c(c2)CCC(=O)N3CC(=O)NCc2ccc(Cl)cc2)CC1
  Tg IFNy HTS: -56

> CCOc1cc(CCC(=O)N(C)Cc2cccc3ncccc23)on1
  Tg IFNy HTS: -39

> CN(Cc1cn2c(n1)CN(Cc1ccco1)CC2)Cc1ccco1
  Tg IFNy HTS: 6

> CC(C)c1nccc(-c2nccn2Cc2cnn(-c3ccccc3)c2)n1
  Tg IFNy HTS: 19

Additional structures
compound | Tg IFNy HTS
CN1CC(=O)N(c2ccccc2)CC12CCN(S(=O)(=O)C1CC1)C2 (stereo not drawn) | -24
CCCCC(=O)Nc1cc(NC(=O)[C@@H]2CCCO2)ccc1OC | -40
CN(C)C(=O)COCC1CN(Cc2ccco2)Cc2nccn2C1 (stereo not drawn) | 17
O=C(c1ccco1)N1CCC2(CC1)C(=O)NCCN2CC1CC1 | 42
CCC(Oc1ccc2c(c1)CCCC2)C(=O)NCCc1cnc[nH]1 (stereo not drawn) | -18
COc1ccc(S(=O)(=O)N2CCCN(S(=O)(=O)c3ccc(OC)c(OC)c3)CC2)cc1OC | -6
CC(C)CCOCC(=O)Nc1cccc(C(=O)O)c1 | 37
Cc1cnn(Cc2nc(-c3ccc(NC(=O)c4ccccc4C(F)(F)F)cc3)oc2C)c1 | -88*
CCOc1ccc(-c2cc3c(=O)n(Cc4nc(-c5ccc(OC(C)C)cc5)oc4C)ccn3n2)cc1 | 81
O=C(CN1CCC(c2nc3ccccc3[nH]2)CC1)N1CCCc2ccccc21 | -7
CC(=O)N1CCO[C@H]2CN(S(=O)(=O)Cc3ccccc3)CC[C@@H]2C1 | -2
O=C(c1[nH]cnc1-c1ccccc1)N1CCOC(c2ccc(Cl)cc2)C1 (stereo not drawn) | -17
Cc1noc([C@@]23COC[C@@H]2CN(C(=O)c2cscn2)C3)n1 | -5
Cc1ccc(Cl)cc1NC(=O)N1CCC(c2nc(C(=O)N3CCCC3)c(C)o2)CC1 | -16
COc1ccc(-c2nc(N3CCN(c4ccc(F)cc4)CC3)c3ccccc3n2)cc1 | 3
CSc1ccc(C2c3[nH]c4ccccc4c3CCN2C(=O)CCc2cccs2)cc1 (stereo not drawn) | -85*
Cc1ccc(C)c(-c2nc(Cn3c(=O)c4cccnc4n(-c4ccccc4)c3=O)c(C)o2)c1 | 9
Cc1ccc(NS(=O)(=O)c2cnn(C)c2C)cc1S(=O)(=O)N1CCOCC1 | 18
Cc1ccc(-c2nc(CSc3nc4c(c(=O)[nH]3)CN(Cc3ccc(F)cc3)CC4)c(C)o2)cc1 | 5
CN(Cc1ccncc1)Cc1cc(-c2cccc(F)c2)cnc1-c1ccncc1 | -11
COc1ccc(-c2cc(=Nc3ccc(C)cc3)c3ccccc3o2)cc1 | 53
COc1ccc2c3c([nH]c2c1)[C@@H](CO)N(S(=O)(=O)c1cn(C)cn1)CC31CCN(Cc2ccccc2Cl)CC1 | -10
Cc1cc(C)n(Cc2nc(-c3ccc(NC(=O)c4ccc(C)c(C)c4)cc3)oc2C)n1 | -88*
Cc1ccc(C(C)NC(=O)Cn2ncc3c(N4CCCC4)ncnc32)cc1 (stereo not drawn) | 12
CC(C)CN(C[C@@H](OP(=O)(O)O)[C@H](Cc1ccccc1)NC(=O)O[C@H]1CCOC1)S(=O)(=O)c1ccc(N)cc1 | -5

Next section:
compound | Tg IFNy HTS
COC[C@H]1CCCN1Cc1cccc(C(=O)Nc2ccc(F)cc2F)c1 | 8
Cc1cc(C)n(Cc2ccc(C(=O)N(C)C(C)c3nccs3)cc2)n1 (stereo not drawn) | 152
CCOc1ccccc1-c1noc(-c2c(O)c3ccc(F)cc3n(CC)c2=O)n1 | 26
COc1ccc(S(=O)(=O)NCCc2sc(-c3ccccc3)nc2C)cc1OC | 213
CC1=CCC2C(=O)N(c3ccccn3)C(=O)C2C1 (stereo not drawn) | -6
CCn1ccc2ccc(CCC(=O)NC(C)c3ccccn3)cc21 (stereo not drawn) | 115
O=S(=O)(c1ccc(F)cc1)N1C[C@H]2[C@@H](c3ccccc31)[C@H](CO)N2Cc1ccccc1Cl | -42
CCN(Cc1c(F)cccc1Cl)C(=O)C1CCN(C(=O)COC)CC1 | -4
CC(=O)Nc1nnc(SCC(=O)Nc2nccs2)s1 | -3
Nc1c(-c2n[nH]c(=S)n2Cc2ccccc2)cnn1-c1ccccc1 | -36
CN(C)CC1(O)CCN(C(=O)c2ccc(C(C)(C)C)cc2)C1 (stereo not drawn) | -1
C=CCn1c(=O)c(C(=O)NCc2ccc(Cl)cc2)c(O)c2ccccc21 | -11
Cn1c(=O)c(-c2nc(-c3ccccc3Br)no2)c(O)c2cc(F)ccc21 | -47
CCCOC(=O)Nc1cc(OC)c(Cl)cc1OC | -41
CCC(CO)NCCNC(CC)CO (stereo not drawn) | 28
